From PubChem BioAssay
Choline anaer gr: growth inhibitors of anaerobic choline-fed gram-negatives, minimal medium, absorbance. Gram-negative bacterium anaerobic choline minimal medium; active compounds read low; many inactives read as strong as hits in the columns shown. calls only. 55,000 compounds, 0.2% hits. AID 1963822, 2024;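 active means growth z-score on choline under -2 at 7 or 20 h with little or no fall on glycerol, limits in tiers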;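 further: stock transfer was 300 nL into about 50 µL; the organism is E. coli; final concentration not given here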
Choline anaer gr early: also measured in Choline anaer gr; calls as there; z-score; measured here: choline growth z-score, timepoint 1;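 score of optical density at 7 h as mean of two plates; lower means less growth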
Active calls of the source: *; i = inactive; & = joins results of further samples. An excerpt; rates above refer to the full screens.

SMILES	Choline anaer gr	Choline anaer gr early
O=C(CN1C(=O)C2CCCCN2c2ccc(C(=O)N3CCCC3)cc21)N1CCCC1 (configuration not stated)	i	0.88
O=S(=O)(c1ccc(-c2nnc(C3CCC3)o2)o1)N1CCN(c2ccccc2)CC1	i	1.1
Cc1nc(-c2ccc(Cl)c(S(=O)(=O)N3CCCC(C(=O)N4CCC(C)CC4)C3)c2)no1 (configuration not stated)	i	-0.79
Cc1nc2nc(-c3ccc(C(C)(C)C)cc3)nn2c(C)c1CC(=O)N1CCC(C)CC1	i	0.33
CC(=O)Nc1ccc2c(c1)nc(CN1CCC(C)CC1)n2C(C)C	i	-2.8
CCCOc1ccc(CN2CCCC2c2c(C)noc2CC)cc1 (configuration not stated)	i	-1.6
Cc1ccc(C2C3=C(CC(c4ccc(O)cc4)CC3=O)Nc3onc(C)c32)cc1 (configuration not stated)	i	-0.43
CC1CC(=O)N(Cc2ccc(F)cc2)c2ccccc2N1 (configuration not stated)	i	0.13
O=C(O)c1ccc(Nc2c(-c3ccc(O)cc3)nc3cnccn23)cc1	i	0.67
CCN(CC)S(=O)(=O)c1ccc2c(c1)nnn2C1CCN(C(=O)NC(C)C)CC1	i	0.48
O=C(Cn1nc2c3sccc3ncn2c1=O)Nc1ccccc1F	i	-0.21
Cc1ccc(-c2noc(CNC(=O)C3CCC(=O)N3S(=O)(=O)c3ccc(C)cc3)n2)cc1 (configuration not stated)	i	0.5
CCN1CCN(c2nc3ncn(CC(=O)Nc4ccc(Br)cc4)c(=O)c3s2)CC1	i	-0.78
CN1C(=O)COc2cc(-c3noc(C(=O)NCc4cccnc4)n3)ccc21	i	0.52
Cc1nc(N2CCCC2)cc(N2CCN(C(=O)Nc3ccc4c(c3)OCCO4)CC2)n1	i	0.03
Cc1cc2c(cc1S(=O)(=O)N1CCCC(C(=O)NC3CCC(C)CC3)C1)OCC(=O)N2 (configuration not stated)	i	-0.67
CCN(Cc1ccccc1)C(=O)C1CCN(S(=O)(=O)c2ccc3c(c2)sc(=O)n3CC)CC1	i	1.6
Cn1c(SCC(=O)c2ccc3c(c2)CCCC3)nnc1-c1ccc2c(c1)OCCCO2	i	0.1
COc1ccc(-n2nnc3c(N4CCN(S(=O)(=O)c5cc(F)ccc5F)CC4)ncnc32)cc1	i	0.14
CCOC(=O)C1CCN(C(=O)C2=C(C)C(=O)OC23CCN(C(C)=O)CC3)CC1	i	0
CCCC(C)NC(=O)c1cnc2sc(C)c(C)n2c1=O (configuration not stated)	i	0.1
CCc1nc(-c2cc(S(=O)(=O)N3CCCC(C(=O)NC4CCC(C)CC4)C3)c(C)s2)no1 (configuration not stated)	i	1.3
COc1cc(OC)cc(C(=O)Nc2cc(C)nn2-c2ncnc3c2cnn3-c2ccc(F)cc2)c1	i	-0.46
O=c1nc(SCc2ccccc2)c2c(n1Cc1ccccc1)CCC2	i	0.68
Cc1cc(NCC(C)C)n2nc(C)c(-c3ccc(F)cc3)c2n1	i	1.5
CCOc1ccc(CNCc2cccn2-c2c(C(=O)O)cnn2-c2ccccc2)cc1	i	-0.26
Cc1nc(Nc2ccc(S(=O)(=O)Nc3ccccn3)cc2)cc(-c2ccccc2)n1	i	0.31
C1CCc2nnnn2CC1	i	0.5&0.73
CN(C)CC[C@@H](c1ccc(Cl)cc1)c1ccccn1	i	0.77
O=C(CC1CCCC1)NCc1c(-c2ccc(Cl)cc2)nc2n1CCS2	i	-0.41
CC(C)CNS(=O)(=O)c1ccc(N2C(=O)C(C)CS2(=O)=O)cc1 (configuration not stated)	i	-1.4
NC(=O)c1n[nH]c2c1CCCCCC2	i	-0.66
CC1(C(=O)NCc2cccc(F)c2)CCCN(S(=O)(=O)c2cccc3nsnc23)C1 (configuration not stated)	i	-0.05
COc1cc(OC)c(NC(=O)NCC2CCN(Cc3ccc(Cl)cc3)CC2)cc1Cl	i	1.3
Cc1cccc(C)c1NC(=O)C(C)N (configuration not stated)	i	0.62&0.63&0.63
Cc1ccc(C)c(N2CCN(C(=O)C3CCN(S(=O)(=O)c4cn(C)c(C)n4)CC3)CC2)c1	i	-0.22
CCn1nccc1C1CCCN1C(=O)c1c(-c2c(F)cccc2Cl)noc1C (configuration not stated)	i	-0.2
Cc1ccc(-n2c(C)cc(CNC(=O)NCC3CCCO3)c2C)cc1 (configuration not stated)	i	-1.8
Cc1ccc(C(=O)N2CCC(c3noc(-c4ccc(S(=O)(=O)N5CCCC5)cc4)n3)CC2)cc1	i	-0.33
CC1Cc2cc(S(=O)(=O)CCC(=O)NCCc3ccc(Cl)cc3)ccc2N1C(=O)C1CC1 (configuration not stated)	i	-0.51

Brought forward from above: seven entries, then new ones.
SMILES	Choline anaer gr	Choline anaer gr early
COc1cc(OC)c(NC(=O)NCC2CCN(Cc3ccc(Cl)cc3)CC2)cc1Cl	i	1.3
Cc1cccc(C)c1NC(=O)C(C)N (configuration not stated)	i	0.62&0.63&0.63
Cc1ccc(C)c(N2CCN(C(=O)C3CCN(S(=O)(=O)c4cn(C)c(C)n4)CC3)CC2)c1	i	-0.22
CCn1nccc1C1CCCN1C(=O)c1c(-c2c(F)cccc2Cl)noc1C (configuration not stated)	i	-0.2
Cc1ccc(-n2c(C)cc(CNC(=O)NCC3CCCO3)c2C)cc1 (configuration not stated)	i	-1.8
Cc1ccc(C(=O)N2CCC(c3noc(-c4ccc(S(=O)(=O)N5CCCC5)cc4)n3)CC2)cc1	i	-0.33
CC1Cc2cc(S(=O)(=O)CCC(=O)NCCc3ccc(Cl)cc3)ccc2N1C(=O)C1CC1 (configuration not stated)	i	-0.51
C=CCOc1ccccc1OCC(O)CNC(C)C (configuration not stated)	i	0.1
CCC(C(=O)Nc1nnc(Cc2cn(C)c3ccccc23)s1)N1C(=O)COc2ccccc21 (configuration not stated)	i	-1.3
Cc1nc2n(c(=O)c1C)CCN2CCOc1ccccc1	i	0.33
O=S(=O)(c1cc(-c2noc(C3CC3)n2)cs1)N1CCc2ccccc2C1	i	2
CCCNC(=O)Nc1cccc(-c2noc(-c3ccncc3)n2)c1	i	-1.5
Cc1c(C)n(-c2ccccc2)c2ncn(CCC(=O)NCCCN3CCCC3=O)c(=O)c12	i	-0.08
C(=C\c1ccccc1)/Cn1c(C2CCCO2)nc2ccccc21 (configuration not stated)	i	-1.1
Cc1c(N2CCC(C(=O)N3CCN(C4CCCCC4)CC3)CC2)c(=O)n(C)c(=O)n1-c1ccccc1	i	-0.42
COc1ccc(-c2ccc(SCc3nc(-c4ccc(Cl)cc4)no3)nn2)cc1OC	i	-0.35
Cc1nc2cc(NC(=O)c3ccc(Cc4ccccc4)cc3)ccc2s1	i	-1.5
CCn1cc(C(=O)O)c(=O)c2cc(F)c(N3CCN(C)CC3)cc21	i	-2.4&-1.6&-2.4
Cc1ccccc1-n1ncc2c(SCC(=O)Nc3ccc(N4CCCC4)cc3)ncnc21	i	-0.96
Nc1nnc(SCc2nnc(-c3ccc4c(c3)OCO4)o2)s1	i	0.76
O=S(=O)(c1ccc(F)c(Cl)c1)N1CCC2(CC1)Nc1ccccc1-n1cccc12	i	-0.15
NS(=O)(=O)c1ccc(NC(=O)Cn2cnc(S(=O)(=O)N3CCCC3)c2)cc1	i	-2
CCCNC(=O)Nc1ccc(-c2noc(C3CC(=O)N(c4cccc(Cl)c4)C3)n2)cc1 (configuration not stated)	i	0.53
Cn1c(-c2nnc(SCC(=O)N3CCN(c4ccccc4)CC3)o2)cc2ccccc21	i	-1.2
Cc1cccc(C2CC(=O)Nc3c2cnn3-c2nc3ccccc3s2)c1 (configuration not stated)	i	0.81
COc1ccc(OCc2nc3ccccc3n2CCCOc2ccc(C)cc2)cc1	i	1.8
Cc1cccc(-n2ccnc(NCCC3=CCCCC3)c2=O)c1	i	-0.85
CCCCNCc1cc(=O)n2[nH]c(-c3ccccc3)nc2n1	i	-0.07
CCOc1ccc(CNC(=O)C2CCCN(S(=O)(=O)N(C)c3ccc(F)cc3)C2)cc1OC (configuration not stated)	i	-0.69
Cn1cc(C(=O)NCc2ccccc2Cl)c2[nH]c(=O)n(-c3ccccc3)c(=O)c21	i	0.02
CCOC(=O)c1ccccc1NC(=O)c1cc2ccccc2c(=O)s1	i	0.36
CCOc1ccc(C(=O)N2CCN(CCc3ccncc3)CC2)cc1	i	-0.46
CCC(=O)N1N=C(c2c(O)n(C)c(=S)n(C)c2=O)CC1c1ccc(N(C)C)cc1 (configuration not stated)	i	-0.05
CC(C)CCn1c(=O)c2sccc2n2c(=O)[nH]nc12	i	-0.56
O=c1[nH]c(SCc2ccc(F)cc2Cl)nc2c(-c3ccccc3)c[nH]c12	i	-0.69
CCc1ccc(NC(=O)NCc2ccc3c(c2)N(C(=O)c2ccccc2)C(C)C3)cc1 (configuration not stated)	i	0.35
CN(C)CC(O)Cn1c2ccc(Br)cc2c2cc(Br)ccc21 (configuration not stated)	i	-2.3
COCCNc1nc(Nc2ccc3c(c2)OCO3)c2cnn(-c3ccccc3)c2n1	i	0.05
CCn1nccc1C(=O)N1CCC(Nc2ncnc3c2CCC3)C1 (configuration not stated)	i	0.86
COC(=O)c1ccc(N2CCN(C)CC2)c(NC(=O)Cc2ccc(OC)c(OC)c2)c1	i	-0.8
Cc1ccc(Cn2c(=O)c3ccc(C(=O)NCC(C)C)cc3n3c(=O)n(CC(=O)NC(C)(C)C)nc23)cc1	i	0.26
COC(=O)c1cc(S(=O)(=O)N2CCCC2C(=O)N2CCN(c3ccccn3)CC2)cn1C (configuration not stated)	i	-0.5
Cc1c2cnn(CC(=O)N3CCC(Cc4ccccc4)CC3)c(=O)c2c(C)n1Cc1ccccc1	i	0.48
O=C(NCc1noc(-c2ccccc2)n1)c1ccc(Cl)nc1	i	0.1
COc1ccc(OC(=O)c2cc(-c3ccccc3)on2)cc1	i	0.66
COc1ccc2[nH]c3c(c2c1)CCN(C(=O)c1ccc(F)cc1)C3c1ccc(F)cc1 (configuration not stated)	i	0.29
OC(c1cc(C(F)(F)F)nc2c(C(F)(F)F)cccc12)[C@H]1CCCCN1 (some centres not stated)	i	-2.8

Part of the list above, with values under each structure:
Values run as follows: Choline anaer gr, Choline anaer gr early
- CCc1ccc(NC(=O)NCc2ccc3c(c2)N(C(=O)c2ccccc2)C(C)C3)cc1 (configuration not stated)
 : i, 0.35
- CN(C)CC(O)Cn1c2ccc(Br)cc2c2cc(Br)ccc21 (configuration not stated)
 : i, -2.3

Further records follow:
SMILES	Choline anaer gr	Choline anaer gr early
O=C(O)c1nn2cc(CCO)cnc2c1Cl	i	0.87
Fc1ccc(Cn2c(COc3ccccc3)nc3ccccc32)cc1	i	0.7
O=C(Cn1cnc2c(sc3ncccc32)c1=O)Nc1ccccc1F	i	-1
CCSc1nn(CC(=O)Nc2ccc(F)cc2F)c(N)c1S(=O)(=O)c1ccc(OC)cc1	i	0.9
O=C(c1csc(S(=O)(=O)N2CCOCC2)c1)N1CCCCC1	i	-0.32
Cc1cc2nc(C)c(=O)n(CCC(=O)NCCc3c[nH]c4ccc(Cl)cc34)c2cc1C	i	0.83
O=C(NC1CC(=O)N(c2ccc(Cl)cc2)C1)C1CCCC1 (configuration not stated)	i	-2.5
Cc1ccc(-n2ccc(=O)c(-c3nc(-c4ccc(Cl)cc4)no3)n2)cc1	i	-0.97
Cc1cc(C)n2nc(CN(C(=O)CC(C)C)c3ccc(F)cc3)nc2n1	i	-0.95
O=C(CCc1nc(CSc2nc(-c3ccc(Cl)cc3)cs2)no1)Nc1nccs1	i	0.26
Cc1ccc(Cl)cc1NC(=O)Nc1cn(CC(C)C)c(=O)c2ccccc12	i	-0.45
CCS(=O)(=O)c1ccc(-c2cccc(NC(=O)Cc3ccccc3)c2)nn1	i	1.6
COCCCNC(=O)c1nnc(-c2oc3ccccc3c2C)o1	i	-0.56
O=C(Nc1ccc2c(c1)OCO2)N1CCN(Cc2nc3cccnc3n2-c2ccccc2)CC1	i	-0.74
Cc1cccc(-c2noc(-c3cc(N4CCCC4)nc4ccccc34)n2)c1	i	0.47
CCC1CCCCN1S(=O)(=O)c1ccc(OC)c(-c2noc(C)n2)c1 (configuration not stated)	i	-0.39
COc1cc(=O)n(-c2ccccc2)nc1C(=O)Nc1cccc(Br)c1	i	-0.46
O=C(CCn1cnc2ccccc2c1=O)N1CCN(c2cccc(Cl)c2)CC1	i	0.96
O=C(Nc1ccccc1)N[C@H]1C[C@H](C(=O)O)Nc2cc(Cl)cc(Cl)c21	i	0.59
CCC1Oc2ccc(Cl)cc2N(CC(=O)Nc2ccc(CCc3nc4ccccc4[nH]3)cc2)C1=O (configuration not stated)	i	1.6
COc1cccc(-n2nnc3c(N4CCN(C(=O)COc5ccccc5F)CC4)ncnc32)c1	i	-0.05
CCOC(=O)c1cccc(NC(=O)c2ccc(CN3CC(=O)N4CSCC4C3=O)cc2)c1 (configuration not stated)	i	0
CCn1c(=O)cc(C)n(-c2ccccc2)c1=O	i	0.2
O=C(Cn1c2c(c(-c3ccccc3Cl)cc1=O)CCC2)NC1CCCCC1	i	0.26
Cc1cc(N2CCOCC2)n2nc(CN3CCC(Cc4ccccc4)CC3)nc2n1	i	1.1
CCOc1ccc(Cc2nc(-c3ccc4c(c3)[nH]c(=O)c(=O)n4C(C)C)no2)cc1OCC	i	1.7
COc1ccc(Br)cc1-c1nc(CSc2nc3c(c(=O)[nH]2)CCC3)c(C)o1	i	-0.23
CCCC(=O)N(c1ccc(OC)cc1)S(=O)(=O)c1ccc2c(c1)n(C)c(=O)n2C	i	-1.6
COc1ccc(CNc2ncnc3scc(-c4ccc(C)cc4)c23)cc1	i	1.6
Cc1ccc(CNC(=O)CCc2nnc3c4cc(-c5ccccc5)nn4ccn23)cc1C	i	1.4
CCOc1ccc(CN2C(=O)c3ccccc3CC2(C)C(=O)NCc2ccc(Cl)cc2)cc1 (configuration not stated)	i	0.82
